Screens (PubChem BioAssay)
HIV Env fusion: HIV envelope-mediated fusion inhibition; HeLa-JRFL Env/CEM21 cell fusion, luciferase; inhibition, % at 12.3 µM; 360,000 tested, 1.1% active; AID 651610;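 active = mean replicate inhibition score of at least 50 and every replicate individually at or above 50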;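 also: 0% = plate neutral controls and 100% = maraviroc near 300 nM; one replicate is shown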
PABP FP inh: blocks human PABP binding to poly(A) RNA. 290,000 tested, 1% active. fluorescence polarization. P11940. inhibition, % at 35 µM;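 active = 50% or more with normal probe brightness, or confirmed in later tests; about a fifth of its hits are not listed in these tables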;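 also: calls also rest on retests at 20 µM and on dose response follow-up; controls were probe without protein and protein plus probe with vehicle; some compounds called inactive have numbers as strong as hits; many hits fall short of the cut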
Target sequence (P11940 whole entry, looked up): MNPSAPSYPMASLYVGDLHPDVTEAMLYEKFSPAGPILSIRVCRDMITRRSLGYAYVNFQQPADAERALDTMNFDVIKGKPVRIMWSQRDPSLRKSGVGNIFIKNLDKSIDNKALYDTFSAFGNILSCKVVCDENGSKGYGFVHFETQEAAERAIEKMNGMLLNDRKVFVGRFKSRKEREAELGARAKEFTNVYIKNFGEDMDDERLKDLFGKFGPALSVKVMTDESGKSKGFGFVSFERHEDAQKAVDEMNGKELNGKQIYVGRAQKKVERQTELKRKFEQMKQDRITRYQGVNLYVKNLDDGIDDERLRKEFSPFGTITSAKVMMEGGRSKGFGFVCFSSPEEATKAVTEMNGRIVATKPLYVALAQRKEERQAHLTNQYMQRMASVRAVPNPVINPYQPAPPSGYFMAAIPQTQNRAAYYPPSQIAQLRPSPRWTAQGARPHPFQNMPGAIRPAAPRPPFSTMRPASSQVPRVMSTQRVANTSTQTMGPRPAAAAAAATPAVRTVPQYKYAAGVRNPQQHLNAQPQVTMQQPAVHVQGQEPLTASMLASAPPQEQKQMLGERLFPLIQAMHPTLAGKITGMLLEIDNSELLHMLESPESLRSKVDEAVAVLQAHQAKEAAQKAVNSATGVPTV
MT1-MMP act inh: blocks activation of human MT1-MMP; P50281; HT1080 RFP-PRO-GFP cells, GFP/RFP ratio fluorescence, overnight; percent of plate control window, DMSO zero; GFP/RFP ratio change, % at 20 µM; 360,000 tested, 0.061% active; AID 651647;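 active = GFP/RFP ratio change of at least 30% with cell ATP level not reduced by more than half and red fluorescence within 50% of control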; also: strong numbers were not always called active
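Assay system: HT1080 RFP-PRO-GFP cells. Benchmarks: DMSO vehicle wells and RFP-L50D-GFP reporter cell wells. Times: overnight cell settling, then overnight compound exposure, 37 °C, 5% CO2. Compound: 20 µM single dose, 1% DMSO. Read-out basis: GFP/RFP fluorescence ratio.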
eIF4H FP inh: inhibitors of RNA binding by human eIF4H | 290,000 tested, 0.94% active | inhibition, % at 35 µM | AID 2012 | Q15056 | eIF4H fluorescence polarization binding assay;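 active = 50% or more with normal probe brightness, or confirmed in later tests; about a fifth of its hits are not listed in these tables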;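 also: calls also rest on retests at 20 µM and on dose response follow-up; 0% = protein and probe with vehicle and 100% = probe without protein; strong numbers were not always called active; many hits fall short of the cut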
UUG fidelity: modulators of start codon recognition fidelity in yeast | S. cerevisiae UUG-firefly luciferase reporter, luminescence/redox ratio | activity score, % at 18.7 µM | 350,000 tested, 0.13% active | AID 602363;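 active = replicate mean at a twofold rise or more, about +100% in these data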;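 also: firefly luciferase made from a UUG start codon reports start codon fidelity; reporter light over untreated wells divided by growth signal over untreated wells; some hits fall short of that in this replicate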
Rce1 inhib: yeast Ras-converting enzyme inhibition; Q03530; yeast membranes, quenched prenylated peptide cleavage fluorescence; calls only; 290,000 tested, 0.27% active; AID 2563;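 active = fall in fluorescence gain of 50% or more versus controls, with final raw signal at or below 3038400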;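 also: plate controls were neutral control wells for no effect and wells lacking membranes for full effect; tested at 10 µM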
Target sequence (Q03530 whole entry, looked up): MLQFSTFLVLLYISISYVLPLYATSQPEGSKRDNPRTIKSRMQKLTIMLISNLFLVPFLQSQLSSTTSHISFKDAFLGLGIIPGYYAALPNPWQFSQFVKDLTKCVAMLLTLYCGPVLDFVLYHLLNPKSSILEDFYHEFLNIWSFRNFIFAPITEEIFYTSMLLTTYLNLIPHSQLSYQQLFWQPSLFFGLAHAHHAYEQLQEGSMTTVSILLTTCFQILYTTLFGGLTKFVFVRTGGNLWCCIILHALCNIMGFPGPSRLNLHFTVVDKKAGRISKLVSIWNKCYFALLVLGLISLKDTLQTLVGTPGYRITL
CSC inhib: cancer stem cell inhibition; 300,000 tested, 1.1% active; cancer stem cell-like cells viability, luminescence; inhibition, % at 7.5 µM;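 active = mean at 75% or more and at least half the replicates too; tested in HMLE shEcad cells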;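 also: 0% = median of negative and 100% = median of positive control wells; the first replicate is given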
MT1-MMP act inh RFP: second read-out of MT1-MMP act inh, no call of its own (marks repeat the call); RFP signal change, %; measured here: RFP expression control read;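 0 = vehicle wells; hits needed this value within 50% of zero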
The depositor's hits bear a star; i = inactive; . = no result given. This is a subset. The share of hits here may be higher or lower than overall.

Results follow in this order: HIV Env fusion	PABP FP inh	MT1-MMP act inh	MT1-MMP act inh RFP	eIF4H FP inh	UUG fidelity	Rce1 inhib	CSC inhib
CC1CC1C(=O)OCC(=O)N(C)CC(=O)Nc1ccc(F)cc1 (centres undefined)
    -1.2	.	0.2	-0.3	.	-23.0	.	9.6
COC(=O)c1cc(C(=O)OC)cc(-n2c(C)cc(C=O)c2C)c1
    2.5	1.5	-0.7	5.0	-3.7	.	i	-4.0
CCCCCc1ccc(-c2ccc(OCC)cc2)nc1
    -48.3	-4.1	2.2	-1.5	-15.3	.	i	5.9
COc1cc(/C=C/C(=O)OCC(=O)NC(=O)NC2CCCC2)ccc1OCC#N
    -12.8	.	3.7	3.0	.	-22.6	.	.
CCOc1ccc(Br)cc1S(=O)(=O)Nc1cccc(S(=O)(=O)N2CCOCC2)c1
    6.7	.	0.9	-4.5	.	6.9	.	.
CCCCCCN(C(=O)CCCCCN1C(=O)NC(c2ccc(-c3ccccc3)cc2)C(C(=O)OCc2ccccc2)=C1C)C(C(=O)NCCCC)c1ccccc1 (centres undefined)
    -20.6	-7.2	.	.	-4.7	.	i	.
Cc1c(C(=O)N2CCOCC2)sc2nc(-c3ccccc3)cn12
    -40.6	6.6	4.5	3.1	-3.8	-9.9	i	5.2
CCOC(=O)c1c(C)noc1CP(=O)(c1ccccc1)c1ccccc1
    -28.2	-4.3	-1.6	3.5	-6.9	-25.2	i	.
COC(=O)c1cccc(CSc2nnc(C)s2)c1
    -29.9	8.9	4.8	5.6	-2.3	-11.9	i	-12.5
CN(CC(=O)N1CCCCCC1)S(=O)(=O)c1ccc(F)cc1
    -20.6	-12.2	1.0	1.2	-1.9	.	i	0.0
COc1cc2cc(CN(Cc3ccc4c(c3)OCO4)C(=O)c3ccco3)c(=O)[nH]c2cc1OC
    1.9	.	-1.5	-0.9	.	.	i	-3.1
COC(=O)c1ccc([C@H](NC(=O)c2ccco2)[C@]2(C)C[C@H]2C2CCCCC2)cc1
    -8.4	.	-6.5	-7.9	.	-8.6	i	18.2
Cn1c(SCC(=O)NC2CC2)nnc1-c1ccc(Cl)cc1
    -5.2	.	-0.6	2.6	.	-17.5	.	3.5
C=CCn1c(C)cc(C(=O)CSc2nnc(NCc3ccccc3)s2)c1C
    -28.6	2.9	-2.4	-5.7	5.5	-18.2	i	58.5
COc1cccc(C(C)NC(=O)Nc2cccc(C(F)(F)F)c2)c1 (centres undefined)
    .	-2.5	-7.1	-7.2	6.3	.	i	7.2
CCOC(=O)C1CCN(C(=O)COC(=O)c2ccc(Br)o2)CC1
    .	-11.7	-4.2	-1.3	-17.1	-0.2	i	7.3
CC(C)NS(=O)(=O)c1ccc(CCC(=O)Nc2cc(Cl)ccc2Oc2ccccc2)cc1
    .	6.6	-9.8	-26.6	2.4	-11.3	i	1.2
O=C(Nc1ccccc1)c1cccc(N2C(=O)C3C4C=CC(C4)C3C2=O)c1 (centres undefined)
    .	-3.6	0.1	-0.1	-1.0	0.1	i	-19.4
Cc1cccc(N=C2NC(=O)c3cc([N+](=O)[O-])ccc32)c1
    -15.5	-13.0	0.5	3.9	-4.9	.	i	1.3
CCN(CC)C(=O)N1c2ccccc2Sc2ccccc21
    6.7	0.6	1.8	-11.6	-1.9	-9.5	i	14.2
CCN(CC)CCCN(Cc1cc2cc3c(cc2[nH]c1=O)OCO3)C(=S)NCCCOC
    3.4	-0.2	.	.	-10.3	0.7	i	-2.2
Cc1cc(C(C#N)c2ccccc2F)n2ncnc2n1 (centres undefined)
    -23.4	5.5	-6.3	-10.6	-2.3	-11.8	i	-1.0
O=C(NC(=S)N(CCO)Cc1ccccc1)c1cc(Br)ccc1Cl
    -0.1	-9.3	4.0	-0.1	-0.7	.	i	-4.5
O=C(Nc1cccc([N+](=O)[O-])c1)C1CC(=O)N(Cc2ccccc2)C1 (centres undefined)
    14.3	6.3	0.1	4.9	0.5	.	i	1.6
CC(C)c1cc(CN2CCN(CCC#N)CC2)cc(C(C)C)c1O
    -2.3	-1.3	-2.8	-0.2	-5.0	-7.9	i	-9.0
CS(=O)(=O)Nc1ccc(C(=O)N2CCCC2)cc1
    -22.1	6.3	1.6	2.8	-0.8	-11.8	i	-9.4
Cc1ccnn1CCSCC(=O)O
    -25.2	15.0	4.6	0.9	-9.8	.	i	.
CN(CC1CCOCC1)C(=O)c1ccc2nc(Cc3cccc(Cl)c3)oc2c1
    13.7	-3.6	4.7	-4.2	2.5	-1.3	.	-7.2
Cc1ccc(C2/C(=C(\O)c3cnn(-c4ccccc4)c3C)C(=O)C(=O)N2CCN(C)C)o1 (centres undefined)
    .	-3.1	-5.4	0.9	7.8	-17.3	i	11.5
COC(=O)c1ccc(C2/C(=C(\O)c3ccc4c(c3)OCCO4)C(=O)C(=O)N2CCCN2CCOCC2)cc1 (centres undefined)
    -4.1	5.1	0.1	2.1	8.5	.	i	-12.4
COc1cc(/C=C/C(=O)OCC(=O)Nc2ccc3c(c2)OCCO3)ccc1OCC#N
    .	13.8	-4.3	2.5	6.4	-3.4	i	9.4
O=C(Nc1nc2c(F)cccc2s1)C1CC1
    -18.8	5.6	-0.5	-6.5	-3.5	0.0	i	-9.6
C=C(NS(=O)(=O)c1ccc(C)cc1)C(=O)OC
    13.9	.	3.0	4.9	.	-12.8	.	.
COc1cc(C(=O)Nc2ccc3ccccc3c2)cc(OC)c1OC
    -156.2	13.9	.	.	7.0	.	i	.
COc1cc(-c2cc(-c3ccc(F)cc3)nc(N)c2C#N)ccc1O
    -5.1	3.3	1.7	-4.6	0.0	.	i	.
COc1ccc(CCN(C)CCC(=O)Nc2c(C)cc(C)cc2C)cc1OC
    19.0	5.7	3.6	3.8	4.9	-12.9	i	-17.4
CCOC(=O)N1CCC(N2CCCC(CO)(Cc3cccc(OC)c3)C2)CC1 (centres undefined)
    -11.8	-8.6	-2.8	3.5	5.1	.	.	-0.7
COC(=O)c1c(-c2ccsc2)oc2ccc(-c3cc(OC)c(OC)c(OC)c3)cc12
    24.7	.	-9.5	-0.7	.	-9.8	i	-5.9
COc1ccc(CN(C2CCCCC2C)S(=O)(=O)c2ccc(S(=O)(=O)N(C)C)cc2)cc1OC (centres undefined)
    37.5	46.3	-6.0	-6.3	-9.2	.	i	8.4
CC1CCCN(C(=O)C2CC(=O)N(c3ccc(Cl)cc3)C2)C1 (centres undefined)
    -3.5	-1.5	0.3	3.5	-6.1	-10.9	i	-14.3
Cc1ccc2[nH]c3c(=O)n(CCC4=CCCCC4)cnc3c2c1
    .	-7.4	.	.	-9.8	.	i	-6.9
C=CCNC(=O)c1ccc(Cn2c(=S)[nH]c3cc4c(cc3c2=O)OCO4)cc1
    -49.6	-0.1	12.9	2.9	4.9	-14.9	i	2.0
O=C(NCc1ccccc1)C(c1ccco1)N(C(=O)c1csnn1)C1CC1 (centres undefined)
    3.2	6.2	0.8	3.1	-11.2	-4.2	.	-17.7
CC1(C)C[C@H]2C3=CCC4[C@@]5(C)CC[C@H](O)[C@@](C)(CO)C5CC[C@@]4(C)[C@]3(C)C[C@@H](O)[C@@]2(CO)[C@@H](O)[C@@H]1O (some centres undefined)
    -38.1	.	-1.3	-0.4	.	-14.8	.	-1.8
Cc1ccc(C(=O)NCC(=O)NCc2ccc(Cl)cc2)s1
    -12.5	.	-3.6	-0.1	.	-10.0	.	-13.4
COc1ccc(C(=O)Nc2c3c(nn2-c2cccc(Cl)c2)CS(=O)C3)cc1 (centres undefined)
    .	-10.8	-0.1	2.9	-8.4	-15.9	i	-6.4
Cc1ccc(C)c(NC(=O)C(OC(=O)c2cnc(C)cn2)c2ccccc2)c1 (centres undefined)
    -2.9	.	-1.0	1.1	.	-10.9	i	.
COc1ccc(CCNC(=O)c2cc(-c3ccco3)on2)cc1OC
    -163.5	12.7	10.1	8.7	-8.7	-10.5	i	24.5
CCOC(=O)c1c(C)[nH]c(C(=O)COC(=O)CSC)c1C
    .	-5.9	2.3	0.7	-4.7	.	i	-12.6
Cc1cccnc1NC(=O)CCNC(=O)c1ccccc1Cl
    2.1	27.9	0.4	4.0	4.3	-15.9	i	5.7
CCOC(=O)N1CCN(C(=O)C(NC(=O)c2ccc(CC)cc2)C(C)C)CC1 (centres undefined)
    11.6	1.5	1.0	1.6	-1.2	-21.8	i	-16.5
Cn1cc([N+](=O)[O-])c(C(=O)N(Cc2ccccc2)Cc2ccccc2)n1
    2.2	1.5	-0.8	3.0	0.8	.	i	0.1
Cc1ccc(SCC(=O)Nc2ccc(N3CCOCC3)cc2)c(C)c1
    -2.9	-3.6	0.2	2.6	-2.3	.	.	-10.8
O=C(O)COc1ccc(/C=C/c2ccc3cccc([N+](=O)[O-])c3n2)cc1
    .	4.5	6.0	4.1	38.3	-23.7	i	1.4
CCn1cc(/C=C(\NC(=O)c2ccc(C)cc2)C(=O)NCCN2CCOCC2)c2ccccc21
    -2.4	8.7	-8.8	-1.8	-7.7	-18.8	i	.
COc1ccc(/C(O)=C2\C(=O)C(=O)N(CCN(C)C)C2c2cccc(OC)c2OC)cc1 (centres undefined)
    13.8	-2.3	1.7	4.9	2.4	9.5	i	-6.3
COc1ccc(OC)c(NC(=O)C23CCC(C)(C(=O)C2)C3(C)C)c1 (centres undefined)
    .	4.5	3.2	5.1	-1.1	-2.9	i	-4.3
COc1cccc(C2N(Cc3ccccc3)C(=O)C2(F)F)c1OC (centres undefined)
    -18.2	16.4	-0.2	-1.9	2.6	-16.3	i	-6.1
COc1ccccc1C1=NOC(C)(c2sc(-c3ccc(Cl)cc3)nc2C)C1 (centres undefined)
    12.4	-5.7	8.0	2.7	-4.7	-13.5	i	24.7
Cc1ccc(C(=O)NC(C(=O)Nc2ccccc2)c2ccccc2)cc1 (centres undefined)
    -16.9	-4.1	0.9	-0.2	3.5	-7.0	i	-6.9

Reformatted with each value named: part of the list above
Cc1ccc(C(=O)NCC(=O)NCc2ccc(Cl)cc2)s1
  HIV Env fusion = -12.5; PABP FP inh = .; MT1-MMP act inh = -3.6; MT1-MMP act inh RFP = -0.1; eIF4H FP inh = .; UUG fidelity = -10.0; Rce1 inhib = .; CSC inhib = -13.4
COc1ccc(OC)c(NC(=O)C23CCC(C)(C(=O)C2)C3(C)C)c1 (centres undefined)
  HIV Env fusion = .; PABP FP inh = 4.5; MT1-MMP act inh = 3.2; MT1-MMP act inh RFP = 5.1; eIF4H FP inh = -1.1; UUG fidelity = -2.9; Rce1 inhib = i; CSC inhib = -4.3

(listing goes on)
Results follow in this order: HIV Env fusion	PABP FP inh	MT1-MMP act inh	MT1-MMP act inh RFP	eIF4H FP inh	UUG fidelity	Rce1 inhib	CSC inhib
CCn1c(SCC(=O)Nc2cccc(F)c2)nc2c(c1=O)SC(C)C2 (centres undefined)
    6.7	-6.9	5.3	-2.6	0.2	1.3	i	6.8
O=C(CC(O)(c1ccccc1)C(F)(F)C(F)F)c1cccs1 (centres undefined)
    0.7	1.2	-3.7	2.0	-6.9	-13.4	i	-17.8
CCOc1ccc(S(=O)(=O)n2ccnc2C)cc1
    .	4.0	.	.	-14.9	.	i	-3.2
CCS(=O)(=O)N1CCC(C(=O)NCc2cccc(OC)c2)CC1
    .	5.6	-3.0	-0.1	-9.9	-9.2	i	-2.4
CCC(CO)Oc1cc(NCc2ccc(OC)cc2)c2ncn(C(C)C)c2c1 (centres undefined)
    13.9	.	-1.5	1.1	.	-13.2	.	-5.4
Oc1ccc(NCc2cccc(OCc3ccc(F)cc3)c2)cc1
    -8.1	30.8	20.0	13.1	33.2	.	i	11.7
O=C(Nc1cccc(Cl)c1)c1cccc(N2C(=O)C3CC=CCC3C2=O)c1 (centres undefined)
    25.0	1.0	-2.2	-7.2	10.4	6.3	i	-10.5
COc1ccc(Nc2nc(N)nc(CSc3nnc(N)s3)n2)cc1
    -55.3	-0.6	4.0	1.3	4.9	-26.3	i	0.6
